StopGo reporter – FMDV 2A StopGo reporter, luciferase signal. human cells with a luciferase reporter of 2A StopGo recoding; control for the full effect not named in the record. Potency, µM (highest dose often 57.9 µM), for the others: top-dose signal change, negative = less light. hit rate 1.2% among 410,000. AID 1159524; active = well fitted falling curve with a large enough effect; inconclusive = small, poorly fitted or top-dose-only effect; inactive = no such curve, though single readings can be large or run the other way; tested in HEK293T cells; also: % is scaled to controls: 0 for no effect and ±100 for the full control effect; nearly all actives have a fitted effect of over 45% in size; luciferase light after 4 h
MARV entry inh – blocks Marburg virus binding to or entry into cells; Marburg virus pseudotyped entry inhibition, cell reporter; control for the full effect not named in the record; about a third of the inactives were read at about 46 µM; Potency, µM (series often up to 37.8 µM), for the others: top-dose activity change, negative = inhibition, usual class: inhibitors; hit rate 1.8% among 300,000; active = well fitted inhibition curve with a large enough effect; inconclusive = small, poorly fitted or top-dose-only effect, or effect the other way; inactive = flat fitted curve, though single readings scatter; tested in HEK293 cells; about a fifth of its hits are not listed in these tables; also: % is scaled to controls: 0 for no effect and ±100 for the full control effect; luciferase read-out
LASV entry inh – inhibitors of Lassa virus binding or cell entry; Lassa virus pseudotype entry inhibition, cell reporter; control for the full effect not named in the record; Potency, µM (doses to about 37.9 µM), without a hit: top-dose activity change, negative = inhibition, actives largely listed as inhibitors; hit rate 1.2% among 300,000; active means well fitted inhibition curve with a large enough effect; inconclusive means small, poorly fitted or top-dose-only effect, or effect the other way; inactive means flat fitted curve, though single readings scatter; tested in HEK293 cells; also: % is scaled to controls: 0 for no effect and ±100 for the full control effect; nearly all actives have a fitted effect of over 50% in size; luciferase read-out
Cruzain inh Det – blocks cruzain activity in presence of Triton detergent; P25779; purified cruzain, Z-FR-AMC fluorescence, 0.01% Triton; Potency, µM, for the others: max response, negative = inhibition, hits mostly inhibitors; hit rate 0.43% among 200,000; AID 1478;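 also: plate controls were neutral wells for no effect and buffer without enzyme for full effect; nearly all actives have a fitted effect of over 40% in size; top concentration of the series not given in the record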
Target sequence (P25779 123-467 limits assumed): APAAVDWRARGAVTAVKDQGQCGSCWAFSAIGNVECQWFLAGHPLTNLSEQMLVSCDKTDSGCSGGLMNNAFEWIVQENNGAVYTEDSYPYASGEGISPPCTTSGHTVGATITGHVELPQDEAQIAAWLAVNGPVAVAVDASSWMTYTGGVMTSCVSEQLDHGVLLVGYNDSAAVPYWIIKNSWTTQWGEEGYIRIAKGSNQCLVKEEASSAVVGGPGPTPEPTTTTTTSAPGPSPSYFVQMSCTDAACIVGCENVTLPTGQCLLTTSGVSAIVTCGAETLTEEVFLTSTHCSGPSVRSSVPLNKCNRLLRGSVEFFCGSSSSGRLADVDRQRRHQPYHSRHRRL
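15 min RT preincubation of 1.5 nM cruzain with compound, then 2 uM Z-FR-AMC added; kinetic AMC fluorescence, 60 s delta. Triton X-100 0.01%, pH 5.5.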
Cruzain inh noDet – blocks cruzain activity in detergent-free assay. P25779. purified cruzain, Z-FR-AMC fluorescence, no detergent. Potency, µM, inactives show max response, negative = inhibition, most hits filed as inhibitors. hit rate 2.3% among 200,000. AID 1476;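 also: plate controls were enzyme without inhibitor for no effect and buffer without enzyme for full effect; nearly all actives have a fitted effect of over 40% in size; top concentration of the series not given in the record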
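Detergent-free condition (0.00005% Triton X-100) in acetate buffer pH 5.5 with DTT. 1.5 nM enzyme and compound were pre-mixed 15 min, then 2 uM Z-FR-AMC substrate added; reaction progress from fluorescence change between first and third reads (60 s).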
NS1 inh – influenza NS1 inhibition. Potency, µM (highest dose often 46.1 µM), without a hit: at the highest dose activity, positive = more growth. S. cerevisiae slowed by influenza A NS1, growth recovery by OD600. hit rate 0.4% among 270,000; active means well fitted rising curve with a large enough effect; inconclusive means small, poorly fitted or top-dose-only effect; inactive means no such curve, though single readings can be large or run the other way; also: nearly all actives have a fitted effect of over 50% in size
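Read-out: OD600 growth recovery of NS1-expressing budding yeast. Cells grown overnight at 30C in -URA glucose medium, washed, resuspended and diluted 1:100 in 2% galactose assay medium, pH 6.0. Same strain lacking NS1 served as positive control.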
RE007 growth inh – less growth of the S. pombe RE007 Vpr strain | S. pombe RE007 Vpr strain, BacTiter-Glo ATP luminescence, 24 h; control for the full effect not named in the record | Potency, µM (highest dose often 92.2 µM), for the others: at the highest dose activity change, negative = less growth | hit rate 0.21% among 360,000 | AID 651644; active = well fitted falling curve with a large enough effect; inconclusive = small, poorly fitted or top-dose-only effect; inactive = no such curve, though single readings can be large or run the other way;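 also: % is scaled to controls: 0 for no effect and ±100 for the full control effect; nearly all actives have a fitted effect of over 50% in size; the assay follows cell death caused by Vpr and the record does not say whether a fall means rescue or toxicity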
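Fission yeast strain RE007, carrying one chromosomally integrated HIV-1 vpr copy, was seeded at OD 0.01 in PMG+AL medium with 23 nL pinned compound. After 24 h at 30 °C and 99% humidity, viability was read by BacTiter-Glo luminescence.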
SARS PLpro yeast – inhibitors of SARS-CoV papain-like protease in yeast; S. cerevisiae expressing SARS-CoV PLpro, growth rescue; control for the full effect not named in the record; Potency, µM (series often up to 32.9 µM), for the others: at the top dose activity, positive = growth rescue; hit rate 0.19% among 330,000; active means well fitted rising curve with a large enough effect; inconclusive means small, poorly fitted or top-dose-only effect; inactive means no such curve, though single readings can be large or run the other way; also: 0% is about no effect; nearly all actives have a fitted effect of over 55% in size; growth read by luminescence after 48 h
Active calls of the source: *; ? = inconclusive; · = no result given; & = joins results of further samples; [ ] = another dose, or the depositor's remark. Unless noted, calls follow the shape of the dose curve; as a rule, active = well fitted curve in the direction sought with a large enough effect; inconclusive = small, poorly fitted or top-dose-only effect, or another doubt; inactive = no such curve, though single readings can be large; an effect the other way counts as inactive or inconclusive. Potency is read from the fitted curve at half-maximal effect.

cpd	canonical_smiles	RE007 growth inh	Cruzain inh noDet	SARS PLpro yeast	StopGo reporter	Cruzain inh Det	NS1 inh	LASV entry inh	MARV entry inh
1	COc1ccc(C(=O)Nc2ccc(C(=O)OCc3cc(=O)n4nc(C5CC5)sc4n3)cc2)cc1	·	8%	·	-23%	-1.2%	·	-6%[46.1 µM]	·
2	Cc1c(C(=O)O)sc2c1c(=O)n(Cc1ccccc1)c(=O)n2C	-1%	·	3%	-22%	·	5%	·	·
3	CCOc1ccc(N2C(=O)CC(N3CCC(O)(c4ccc(Br)cc4)CC3)C2=O)cc1 (stereo not given)	35µM*	0%	-33%	0%	0.7%	-245%	17%	14%
4	Cc1cccc(NC(=O)c2cccc3c2C(=O)c2ccccc2-3)c1	-13%	-29%	0%	-19%	-0.1%	-12%	?	3%
5	CCc1ccc(NC(=O)CSc2nc3ccccc3nc2N2CCCCC2)cc1	-14%	·	-8%	20%	·	?	·	·
6	O=C(Nc1ccc(C(=O)O)cc1)/C(=C\c1cccc([N+](=O)[O-])c1)NC(=O)c1ccc(Br)o1	-25%	·	-3%	-2%	·	·	6%[46.1 µM]	?
7	O=C(NC1(C(F)(F)F)N=C2SCCN2C1=O)C1CCCCC1 (stereo not given)	10%	19%	2%	-5%	-0.3%	3%	1%	2%
8	CCOc1ccc(NC2c3ccccc3C(=O)N2c2ccc(Cl)cn2)cc1 (stereo not given)	-10%	-4%	14%	12%	-5.5%	-39%	·	·
9	O=C(CCc1c[nH]c2ccccc12)NCCc1ccccc1	25%	·	-3%	40%[activator]	·	-1%	-13%	2%[46.1 µM]
10	C#CCn1c(=NC(=O)c2cccs2)sc2cccc(OCC)c21	-7%	-14%	5%	-21%	-9.4%	-1%	·	·
11	Cc1cc(-c2n[nH]c(=S)n2-c2ccc(F)cc2)nn1C	4%	·	0%	-8%	·	7%	·	·
12	CCOC(=O)c1c[nH]n2c(=O)cc(C)nc12	1%	·	1%	-8%	·	1%	-2%	?
13	CCC(=O)Nc1cnc(NC(=O)c2cccc(F)c2)cc1C	-8%	-11%	-23%	-19%	1.7%	-5%	?	?
14	COc1ccc(CCN2C(=O)C3CC(C)=C(C)CC3C2=O)cc1OC (stereo not given)	-11%[3.69 µM]	-4%	-2%	-13%	2.3%	-11%	9%	7%
15	COc1ccc(S(=O)(=O)NCC(c2cccnc2)N2CCN(c3ccccc3)CC2)cc1C (stereo not given)	0%	-10%	-33%	4%	-3.9%	-64%	-19%	-2%
16	COc1ccc(N(C(=O)C(C)C)S(=O)(=O)c2cccc3cccnc23)cc1	6%	6%	7%	-14%	-2.2%	4%	4%	5%
17	Cc1cc(C)cc(NC(=O)CN2CCc3ccccc3C2)c1	-8%	9%	5%	-11%	-6.6%	-15%	-1%	-5%
18	CS(=O)(=O)N(CC(=O)N1CCc2ccccc2C1)c1ccc(Cl)cc1F	2%	·	3%	-19%	·	-8%	-5%[46.1 µM]	-23%[46.1 µM]
19	CC(C)c1nnc(NC(=O)CCC(=O)NCc2ccc3c(c2)OCO3)s1	-1%	1%	8%	-16%	4.3%	4%	9%	7%
20	O=C(O)CCC(=O)N1CCN(c2ccccn2)CC1	19%	1%	2%	-11%	7.1%	5%	11%	7%
21	O=C(CN1C(=O)COc2ccc(S(=O)(=O)N3CCOCC3)cc21)N1CCN(c2ccccc2)CC1	·	?	·	-12%	0.8%	·	0%[46.1 µM]	8%[46.1 µM]
22	CC(C(=O)NC1CCCCC1)N(Cc1ccccc1)C(=O)c1snc(C(N)=O)c1N (stereo not given)	-29%	·	1%	-9%	·	6%	24%	-13%[46.1 µM]
23	Cc1c(NC(=O)c2ccc(COc3ccc4ccccc4c3)o2)c(=O)n(-c2ccccc2)n1C	0%	?	2%	-2%	-6.5%	-6%	10%	?
24	Cc1[nH]nc2c1C1(CCOC1C)C(C#N)=C(N)O2 (stereo not given)	-1%	11%	·	·	2.1%	?	23%	3%
25	COc1ccc(NC(=O)CSc2nc3ccc(OC)cc3[nH]2)cc1	-6%	·	-1%	-5%	·	7%	·	·

Complete entries as entered above. Order of values: RE007 growth inh, Cruzain inh noDet, SARS PLpro yeast, StopGo reporter, Cruzain inh Det, NS1 inh, LASV entry inh, MARV entry inh
Profile of Cc1cc(-c2n[nH]c(=S)n2-c2ccc(F)cc2)nn1C : 4%, ·, 0%, -8%, ·, 7%, ·, ·
Profile of Cc1cc(C)cc(NC(=O)CN2CCc3ccccc3C2)c1 : -8%, 9%, 5%, -11%, -6.6%, -15%, -1%, -5%
Profile of C#CCn1c(=NC(=O)c2cccs2)sc2cccc(OCC)c21 : -7%, -14%, 5%, -21%, -9.4%, -1%, ·, ·

Going on with the list.
cpd	canonical_smiles	RE007 growth inh	Cruzain inh noDet	SARS PLpro yeast	StopGo reporter	Cruzain inh Det	NS1 inh	LASV entry inh	MARV entry inh
26	COc1ccc(-n2c(=O)[nH]c3ccccc3c2=O)cc1	-1%	-1%	9%	21%	4.2%	7%	20%	5%
27	Cc1ccc[n+](CC(=O)Nc2ccc(N(C)C)cc2)c1	0%	·	6%	-11%	·	6%	·	·
28	Cc1cccc(C)c1Nc1oc(-c2ccccc2)nc1-c1cccc2ccccc12	·	-2%	·	·	-2.2%	·	?	?
29	CCOc1ccc(OCC)c(NC(=O)C2CCCN(S(=O)(=O)c3cc(Br)cc4c3N(C(=O)CC)CC4)C2)c1 (stereo not given)	·	6%	·	?	-2.3%	·	-11%[46.1 µM]	-7%[46.1 µM]
30	CCOc1cccc(-c2nn3c(-c4cc(C)[nH]n4)nnc3s2)c1	-4%	-4%	-6%	?	0.7%	-2%	-18%	-14%&-14%
31	FC(F)(F)c1ccccc1CN1CCN(C2CCCCCC2)CC1	-21%	10%	-5%	-26%	-2.1%	0%	?	8.2µM*
32	CSc1ccc(CCNC(=O)CCc2c(C)nc3c(-c4ccccc4)c(C)nn3c2C)cc1	·	?	·	?	-1.5%	·	-12%[46.1 µM]	?
33	COc1ccccc1NC(=O)Cn1nnc(-c2ccccc2NC(=O)c2ccco2)n1	-12%	?	8%	?	-0.3%	12%	?	-28%&-28%
34	O=C(CSc1nnc(COc2ccccc2)o1)N1CCCCC1	-6%	·	2%	25%	·	-3%	-6%[46.1 µM]	3%[46.1 µM]
35	O=C(Cc1ccccc1)Nc1cc2c(cc1Cl)OCCCO2	-17%	·	-1%	29%	·	-20%	-24%[46.1 µM]	0%[46.1 µM]
36	CNC(=O)c1sc(-c2ccccn2)nc1C	13%	·	-1%	12%	·	·	20%	10%[46.1 µM]
37	COC(=O)Cn1c2ccc(F)cc2c2nc(C)sc21	9%	-9%	-16%	-17%	-2.0%	-91%	-14%	?
38	COc1ccc(CCNC(=O)c2ccc(-c3ccc([N+](=O)[O-])cc3Cl)o2)cc1OC	1%	5%	-26%	13µM*	-13%	-33%	?	?
39	O=C(CN1CCC(NC(=O)c2ccccc2)CC1)NCc1ccccc1F	-4%	2%	11%	6%	2.6%	-7%	?	4%
40	CSc1ccc(S(=O)(=O)NCC(=O)OCC(=O)NCc2ccco2)cc1[N+](=O)[O-]	-4%	·	-4%	-12%	·	·	-1%	16%[46.1 µM]
41	Cc1ccccc1NC(=O)COC(=O)c1ccc2c(c1)OCCO2	4%	·	-1%	11%	·	·	7%	1%[46.1 µM]
42	CC(=O)C1=C(O)CCC1=N	16%	4%	4%	-8%	2.5%	4%	2%	-5%
43	COc1ccc(/C=C(/NC(=O)c2ccco2)C(=O)N2CCc3ccccc32)cc1OC	8%	·	-1%	-8%	·	-34%	7.9µM*	-6%[46.1 µM]
44	O=C(O)c1ccc(N2C(=O)CC(N3CCC(c4nc5ccccc5[nH]4)CC3)C2=O)cc1 (stereo not given)	0%	·	1%	-10%	·	2%	1%	3%[46.1 µM]
45	O=C(NC1=NCCS1)c1cccs1	-18%	-11%	-6%	29%	3.4%	5%	2%	-2%
46	CC1=CN2C(=N)/C(=C\c3cn(CCCOc4ccccc4)c4ccccc34)C(=O)N=C2S1	-11%	?	9%	-28%	-5.4%	9%	?	?
47	Cc1ccc(S(=O)(=O)N(CCO)c2cc3c(s2)CCCC3)cc1	16%	-4%	-2%	-3%	-0.9%	-26%	-13%	-1%
48	O=C(NNc1ccnc2cc(Cl)ccc12)C1CCCCC1	-1%	·	3%	?	·	·	-4%	?
49	COc1cccc(N2CCN(CC(=O)C34CC5CC(CC(C5)C3)C4)CC2)c1	1%	1%	-1%	-16%	2.7%	-3%	-3%	9%
50	NS(=O)(=O)c1ccc(CCNC(=O)CC(NC(=O)c2ccccc2Cl)c2ccccc2)cc1 (stereo not given)	-5%	·	0%	10%	·	0%	-2%	17%[46.1 µM]
51	O=C(O)c1ccc(-n2cc(C(=O)c3ccccc3O)cn2)cc1	-1%	·	1%	0%	·	-1%	·	·
52	COc1ccc(-c2cn3c(n2)sc2cc(C(=O)Nc4ccc(C)c(C)c4)ccc23)cc1	·	-1%	·	6%	-5.8%	·	-28%[46.1 µM]	·
53	O=C(O)/C(=C/c1ccc(Cl)c([N+](=O)[O-])c1)c1ccc(S(=O)(=O)N2CCCCC2)s1	-15%	·	·	-12%	·	·	0%[46.1 µM]	11%[46.1 µM]
54	CC(C)N(C(=O)CSc1nc2ccccc2n1Cc1ccccc1F)C(C)C	189%	5%	20%	-20%	-6.9%	-2%	-22%	-26%
55	O=C(NCC1CCCO1)c1ccc(S(=O)(=O)Nc2ccc(F)cc2)cc1 (stereo not given)	-28%	·	-4%	-5%	·	·	-10%	-5%
56	CC(OC(=O)c1nsc(Cl)c1Cl)C(=O)NCc1ccc2c(c1)OCO2 (stereo not given)	6%	3%	-15%	·	4.5%	17%	?	-12%
57	Cc1c(NC(=O)C(C)C)cccc1-c1nc2ncccc2o1	1%	·	?	11%	·	-13%	·	·
